# From PubChem BioAssay
# Proteasome disasm: blocks ATP-dependent breakdown of the yeast 26S proteasome | anti-FLAG beads, GFP-proteasome disassembly, flow cytometry | inhibition of disassembly, % (test concentration not listed) | 24,000 tested, 0.2% active | AID 751;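 active means above 40%; inconclusive means likely self-fluorescent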;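 further: plate controls were ATP control with full disassembly for no effect and ATP-gamma-S intact proteasomes for full effect; higher percent means more bead fluorescence retained so stronger block of disassembly; stock transfer was 100 nL into about 10 µL; wells with too few beads may also be inconclusive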
# VCAM-1 rise: enhancers of VCAM-1 display on endothelial cells, cell-based, plate reader, pooled HUVEC, TNFa stimulus (AID 455). HUVEC TNFa-induced VCAM-1 immunofluorescence, plate reader; numbers were filed only for top-ranked candidate wells. augmentation, % at 5 µM. 10,000 tested, 0.2% active;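 active means a compound raising TNF-alpha-driven VCAM-1 surface staining, with its hit status upheld on visual or statistical review; inactive means the rest, including hits rejected on review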;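 further: 0% = TNFa with vehicle and 100% = strongest image-checked hit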
# Starred values were filed as active, the others as inactive; i = inactive; ? = inconclusive; nt = no result given. The list is partial; count on the stated rates, not on these rows.
VCAM-1 rise | Proteasome disasm | compound
i | 0.0 | O=C1CCCC2=C1C1(CCCC1)N=C(Nc1nc3ccccc3s1)N2
nt | 1.5 | COC(=O)CSc1nnc(Cc2cc(=O)[nH]c(=O)[nH]2)n1-c1cccc(OC)c1
nt | 0.3 | O=C(CCN1C(=O)C2C3C=CC(C3)C2C1=O)N1CCN(c2cccc(Cl)c2)CC1 (stereo unspecified)
nt | ? | CCOC(=O)N1CCN(C(=O)C2CCC(CNS(=O)(=O)c3ccccc3)CC2)CC1 (stereo unspecified)
nt | -0.9 | COC(=O)CSc1ccc2c(N)c(C(=O)OC)sc2c1
nt | -2.1 | CC1=CC(=C2C(=O)c3ccccc3C2=O)C=C(C)N1C
i | -1.2 | CC1CCc2nn(CC(=O)NCCN3CCOCC3)cc2C1 (stereo unspecified)
nt | 0.1 | COc1ccc2[nH]cc(CCN=C3SCC(=O)N3C)c2c1
i | 4.1 | CCN(CCNC(=O)CS(=O)(=O)Cc1nc(-c2cccc(OC)c2)oc1C)c1ccccc1
nt | 0.1 | C#CC(C)(C)NC(=O)CSc1nc2c(c(=O)n(C)c(=O)n2C)n1CCCC
nt | 1.6 | O=C(Cn1c(=O)oc2cc(S(=O)(=O)N3CCc4ccccc43)ccc21)N1CCCCC1
nt | -0.1 | CCOCCn1c(=O)c2c(nc3n2CCN3c2ccc(C)cc2)n(C)c1=O
nt | -1.4 | COc1ccc(N2C(=O)CSC2c2cccc(F)c2)c(OC)c1 (stereo unspecified)
i | 0.3 | O=C(NC(=O)c1cccc(F)c1)OC[C@@H]1CCCN2CCCC[C@H]12
i | 2.3 | CCC(=O)Nc1c(C#N)c2nc3ccccc3nc2n1-c1ccccc1C

# Filtered by structure, the compounds so far with an aryl thioether with sulfur outside any ring.
VCAM-1 rise | Proteasome disasm | compound
nt | 1.5 | COC(=O)CSc1nnc(Cc2cc(=O)[nH]c(=O)[nH]2)n1-c1cccc(OC)c1
nt | -0.9 | COC(=O)CSc1ccc2c(N)c(C(=O)OC)sc2c1
nt | 0.1 | C#CC(C)(C)NC(=O)CSc1nc2c(c(=O)n(C)c(=O)n2C)n1CCCC

# Shown field by field: 2 of the compounds above
CCOCCn1c(=O)c2c(nc3n2CCN3c2ccc(C)cc2)n(C)c1=O
  VCAM-1 rise: nt
  Proteasome disasm: -0.1

COC(=O)CSc1ccc2c(N)c(C(=O)OC)sc2c1
  VCAM-1 rise: nt
  Proteasome disasm: -0.9

# (next part)
VCAM-1 rise | Proteasome disasm | compound
i | 0.3 | CCn1c(SCC(N)=O)nc2c1c(=O)n(C)c(=O)n2C
nt | -0.6 | O=C(NCCN1C(=O)C2C3C=CC(C3)C2C1=O)Nc1ccc(Br)cc1 (stereo unspecified)
nt | 7.5 | CC(C)NC(=O)C1CCN(Cc2cnn(-c3ccccc3)c2-n2cccc2)CC1
i | -0.6 | CN(c1cccc(NS(=O)(=O)c2cccs2)c1)S(C)(=O)=O
nt | 3.4 | COC(=O)c1cc(=O)nc2sc(-c3ccc(F)cc3)nn12
nt | 1.8 | Cc1[nH]c(=S)[nH]c(=O)c1Cc1ccccc1
nt | 1.1 | COc1ccc(OC)c(NC(=O)CSc2nnc(Cc3cccn3C)n2CCc2ccccc2)c1
nt | 1.9 | CC12C=CC3(CN(Cc4ccccc4)C(=O)C3C1C(=O)NC1CC1)O2 (stereo unspecified)
nt | -0.2 | COc1cccc(Nc2c(F)c(OC)c(F)c(F)c2C(=O)O)c1
i | 0.0 | CN1CCC(NC(=O)c2cccs2)CC1
nt | -1.0 | CCCC(=O)c1cc2cc(Cl)ccc2oc1=O
nt | 0.6 | O=C1Nc2c(Br)cc(Br)cc2C1(O)N1CCOCC1 (stereo unspecified)
nt | -0.2 | CC1Cc2nc(SCC(=O)NCC3CCCO3)n(Cc3ccccc3)c(=O)c2S1 (stereo unspecified)
nt | -1.0 | CCOc1ccccc1NC1c2ccccc2C(=O)N1c1ccc(C)cn1 (stereo unspecified)
i | 1.3 | COc1cc(C(=O)N2CCC(NC(=O)C(Cc3ccc(C)cc3)NC(C)=O)CC2)cc(OC)c1OC (stereo unspecified)
i | 1.6 | Cc1nc(SCC(=O)N2CCC(C(N)=O)CC2)n[nH]1
nt | -0.6 | O=C(Cn1cc2c(n1)CCCCC2)Nc1ccc(F)cc1F
nt | ? | N=c1oc2c3c4c(cc2cc1C(=O)Nc1ccccc1)CCCN4CCC3
nt | 0.4 | CCOC(=O)c1[nH]c(C)c(C(=O)NC2CCCC2)c1C
i | -0.8 | O=C(Nc1ccc(S(=O)(=O)N2CCc3ccccc32)cc1)c1ccc2c(c1)OCO2
i | -4.9 | COc1ccc(Br)cc1-c1noc(-c2ccccc2)n1
nt | 0.6 | O=C(c1ccco1)N1CCN(C/C=C/c2ccccc2)CC1
nt | -0.3 | O=C1Nc2cc(Cl)ccc2C1(N1CCNCC1)C(F)(F)F (stereo unspecified)
nt | 3.6 | O=C(C1CC1)N1CCc2cc(Br)cc(S(=O)(=O)NCCN3CCOCC3)c21
nt | 0.7 | CC1(C)CC(O)C(CCC(O)c2ccccc2)C(C)(C)N1 (stereo unspecified)
nt | -2.0 | CCOC(=O)c1sc(NC(=O)C(CC)Sc2nnc3c4ccccc4n(CC)c3n2)nc1C (stereo unspecified)
nt | 3.4 | Cc1ccc(Cl)cc1N1CCN(C(=O)C2CCN(S(=O)(=O)c3cccnc3)CC2)CC1
nt | -2.3 | Cc1noc(C)c1S(=O)(=O)N(CCc1ccccc1)Cc1ccccc1
nt | -1.5 | COc1cccc(-c2cc(C(=O)NC3CCCC3)no2)c1
nt | 2.6 | CC(=O)c1ccc(NC(=O)CSc2nc3nc(C)cc(C)n3n2)cc1
nt | -0.1 | CCCS(=O)(=O)N1CCCC(C(=O)NCCN(C)Cc2ccccc2)C1 (stereo unspecified)
i | -2.8 | COc1ccc(-c2noc(-c3ccccc3C(=O)NCc3ccco3)n2)cc1
i | -0.3 | O=C(c1ccccc1)N1CCCCC(Sc2nnnn2-c2ccccc2)C1=O (stereo unspecified)
i | 0.2 | CN(C)C(=O)c1ccc(COc2ccccc2Br)o1
nt | 0.9 | CCOC(=O)N1CCN(C(=O)c2ccc3c(=O)n(CCC4=CCCCC4)c(=O)[nH]c3c2)CC1
i | -1.2 | Cc1ccc(CS(=O)(=O)CCC(=O)NCC2CCCO2)cc1 (stereo unspecified)
i | -1.3 | Cc1cc(/C=N\O)c(C)n1-c1ccncc1
nt | -0.6 | COc1ccc(NC(=O)c2oc3ccccc3c2NC(=O)c2ccc3c(c2)OCO3)cc1
i | -0.5 | COc1ccc(NC(=O)CCNC(=O)Cn2ccc3ccccc3c2=O)c(OC)c1
i | 0.5 | c1ccc(-c2cc(CSc3nc4ccccc4[nH]3)on2)cc1
nt | -0.5 | COc1cccc(-c2nn(C)c3sc(C(=O)N4CCOCC4)cc23)c1
nt | -1.3 | CCn1cc(C(=O)N2CC=C(c3ccccc3)CC2)c(=O)c2ccc(C)nc21
i | 1.5 | CN/C(=C/[N+](=O)[O-])NCCSCc1ccc(CN(C)C)o1
nt | 3.5 | CS(=O)(=O)N1CCC(C(=O)NCCN2CCN(Cc3ccccc3)CC2)CC1
i | 0.7 | CCOC(=O)CNC(=O)Nc1nnc(-c2ccc(OCC)cc2)o1
nt | -1.8 | Cn1c(C(=O)O)c(CC(=O)NCC2COc3ccccc3O2)c2ccccc21 (stereo unspecified)
nt | 0.4 | CCCCOC(=O)C1C2C=CC3(CN(CCc4ccccc4)C(=O)C13)O2 (stereo unspecified)
nt | 1.4 | Cc1ccc(CC2CC(=O)N(c3cc(C)on3)C2=O)cc1 (stereo unspecified)
i | -3.6 | COc1ccc(CN(CC(=O)NCC2CCCO2)C(=O)CCC(=O)Nc2cc(C)on2)cc1 (stereo unspecified)
nt | -1.4 | CC(=O)c1cccc(NC(=O)CCS(=O)(=O)c2cccc3nonc23)c1
nt | -0.9 | Cc1cccc(-c2nc(CS(=O)CC(=O)NCC3CCCO3)c(C)o2)c1 (stereo unspecified)
nt | -0.4 | COc1ccc(N(CC(=O)N2CCc3ccccc3C2)S(=O)(=O)c2c(C)[nH]c(=O)[nH]c2=O)cc1
i | 3.0 | Cc1cc(C)c(OCC(=O)Nc2ccc3c(c2)OCO3)cc1C
nt | 1.1 | CSCCOC(=O)c1[nH]c2c(c1C)C(=O)CC(c1ccco1)C2 (stereo unspecified)
nt | -0.8 | Cc1noc(C)c1S(=O)(=O)N1CCCC(C(=O)NCc2ccccn2)C1 (stereo unspecified)
nt | -0.5 | O=C(CSc1nnc(CNC(=O)c2c(F)cccc2Cl)o1)Nc1ccccc1
nt | 2.2 | COc1cc(NS(=O)(=O)c2ccc(F)cc2)c(C(=O)O)cc1OC
nt | -1.3 | CC(C)c1ccc(S(=O)(=O)c2n[nH]n3c2nc(=O)c2ccccc23)cc1
i | -0.2 | O=c1c2ccccc2sn1-c1ccc(S(=O)(=O)N2CCCCC2)cc1
nt | -2.2 | O=C(NC1CCCc2ccccc21)C1CCC(CNc2c(N3CCOCC3)c(=O)c2=O)CC1 (stereo unspecified)

# The listing continues.
VCAM-1 rise | Proteasome disasm | compound
nt | 1.9 | CCCOC(=O)c1ccc(OCC(O)CN2CCN(C(=O)c3ccccc3)CC2)cc1 (stereo unspecified)
nt | 0.8 | Cc1csc(NC(=O)CSc2nnc(Cc3cccn3C)n2CCc2ccccc2)n1
i | -2.0 | O=C(c1cc2ccccc2oc1=O)N1CCN(c2ccc(N3CCOCC3)nn2)CC1
i | -0.2 | CCc1ccc(N2CC34C=CC(O3)C(C(=O)OC)C4C2=O)cc1 (stereo unspecified)
i | 0.4 | Cc1cnc(C(=O)Nc2ccc(N3CCOCC3)cc2)cn1
nt | 0.9 | CCOC(=O)c1[nH]c(C)c(C(=O)N2CCN(c3cccc(Cl)c3)CC2)c1C
i | -0.3 | Cc1cc(C(=O)Nc2cccc(O)c2)c(C)o1
nt | 0.1 | Fc1ccc2nc(N3CCCCC3)sc2c1
nt | -0.4 | CC1CCCC(C)N1c1nnc(N)s1 (stereo unspecified)
nt | -0.3 | COc1cc(C(=O)NCc2nnc(SCC(=O)NCc3ccccc3)o2)cc(OC)c1OC
nt | -0.1 | COC(=O)c1ccc(OCC2c3cc(OC)c(OC)cc3CCN2C(=O)c2ccco2)cc1 (stereo unspecified)
nt | -1.4 | COc1cccc(-n2c(SCC(=O)NCCC3=CCCCC3)nc3n[nH]c(C)c3c2=N)c1
nt | -2.3 | CCCN(CCC)CCCNC(=O)c1ccc2c(c1)N(CC)C(=O)c1ccccc1S2=O (stereo unspecified)
nt | 0.6 | CCC(C)[C@@H](C(=O)Nc1ccc2c(c1)OCO2)N1Cc2ccccc2C1=O (stereo partly specified)
nt | -3.2 | COC(=O)c1ccc2c(=O)n(C3CCCCC3)c(SCC#N)nc2c1
i | -0.1 | CCOC(=O)N1CCN(c2cc(=O)n(-c3cccc(Br)c3)c(=O)[nH]2)CC1
nt | 0.1 | Cc1cc(Nc2cccc(F)c2)n2nc(C)nc2n1
nt | 35.2 | O=C(Nc1cccc(NC(=O)c2ccc(-c3cccc(Br)c3)o2)c1)c1ccco1
nt | 0.2 | CCOC(=O)CNc1c(-c2ccc(Cl)cc2)nc2cnccn12
nt | -0.1 | O=C(CSc1nc2ccccc2c(=O)n1NC(=O)Cc1ccccc1)NCc1ccco1
i | -0.2 | Cc1ccc(NC(=O)CSc2nnc(CNC(=O)c3c(F)cccc3Cl)o2)cc1
nt | -7.1 | CCOc1ccc(NC(=O)C2CCN(S(=O)(=O)c3c(C)n[nH]c3C)CC2)cc1
nt | 0.6 | Cc1ccc(-n2nnc3c(=O)n(CC(=O)N4CCC(C)CC4)cnc32)cc1
i | 1.3 | CC1Cc2nc(SCC(N)=O)n(Cc3ccccc3)c(=O)c2S1 (stereo unspecified)
i | -0.6 | COC(=O)c1ccc(CSc2nc3ccccc3c(=O)n2Cc2ccco2)o1
i | 0.2 | COc1ccc(C2C(C(C)=O)=C(O)C(=O)N2C)c(OC)c1 (stereo unspecified)
nt | 0.3 | Nc1nnc(N2CCCCC2)s1
nt | -0.1 | COc1cc2c(cc1OC)C(C(=O)N1CCN(c3ccccn3)CC1)C(c1cccs1)N(C)C2=O (stereo unspecified)
nt | -2.3 | CN1C(=O)CS(=O)c2ccc(C(=O)NCCC3=CCCCC3)cc21 (stereo unspecified)
nt | -0.8 | S=c1[nH]nc(-c2ccncc2)n1CC1CCCO1 (stereo unspecified)
nt | 2.8 | Cc1noc(C(=O)Nc2c(C)n(C)n(-c3ccccc3)c2=O)c1Cl
nt | 0.5 | COC(=O)CC[C@@H](C(=O)O)N1C(=O)c2ccccc2C1=O
i | 0.7 | COc1ccc(C(=O)NCc2nnc(SCC(=O)Nc3cc(C)cc(C)c3)o2)cc1OC
nt | -1.0 | O=C(NCc1ccccn1)c1ccc2ccccc2n1
nt | -2.2 | CCC(C)(C(=O)NC1CCCCC1)N(C)C(=O)c1ccccn1 (stereo unspecified)
i | -1.4 | CC(C)CNS(=O)(=O)c1ccc(CCC(=O)N2CCOCC2)cc1
i | 1.1 | CCOc1cc(C2NC(=O)NC(O)(C(F)(F)F)C2C(=O)c2ccccc2)ccc1OC (stereo unspecified)
nt | -1.5 | COc1ccc(S(=O)(=O)Nc2cc(C)c(O)c(S(=O)(=O)c3ccccc3)c2)cc1
i | 1.3 | CC(=O)c1cnc2cc(-c3ccccc3)nn2c1C
i | 11.5 | CC(C)C1Cc2c(C#N)c(N)sc(=S)c2CO1 (stereo unspecified)
nt | -0.4 | COC(=O)NCc1cccc(CNC(=O)OC)c1
nt | -0.1 | CC1CCCCN1CCNC(=O)CC1Oc2ccccc2NC1=O (stereo unspecified)

# As a short view, some entries already given:
VCAM-1 rise | Proteasome disasm | compound
nt | 0.9 | CCOC(=O)N1CCN(C(=O)c2ccc3c(=O)n(CCC4=CCCCC4)c(=O)[nH]c3c2)CC1
i | -1.2 | Cc1ccc(CS(=O)(=O)CCC(=O)NCC2CCCO2)cc1 (stereo unspecified)
